From PubChem BioAssay
MgrA-DNA mod – S. aureus MgrA-DNA binding modulation | hit rate 0.13% among 84,000 | fluorescence polarization | AID 602314 | inhibition, %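 (about 10 µg/mL by stock and volumes)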;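 active = above 50% in either of two replicates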;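 note: 0% = protein plus DNA without compound and 100% = DNA alone without protein; higher means less MgrA bound to DNA so lower polarization; one replicate is shown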
S aureus helic – S. aureus DNA helicase inhibition; purified S. aureus helicase, fluorescence unwinding assay; about half of the hits fall short of the stated cut; inhibition, %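 (tested at about 80 µM)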; hit rate 0.05% among 120,000;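 active = both duplicates at 50% or more, or one of them with a favoured structure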;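 note: 0% = mean of negative control wells and 100% = mean of positive control wells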
Active calls of the source: *; . = not tested or not shown. This is a subset; the hit share may differ from the screen's.

compound	MgrA-DNA mod	S aureus helic
Cc1c(C(=O)NC(C)C)oc2ccc(S(=O)(=O)N3CCCC3)cc12	-0.8	8
COC(=O)c1cc2sccc2n1Cc1nc(-c2ccccc2F)oc1C	.	2
COc1ccc(-c2csc(Cc3nnc4n3CCCCC4)n2)cc1	.	11
CCCCc1ccc(NC(=O)CSc2nnc(N)s2)c(C)c1	0.3	.
C=CCNC(=O)c1ccccc1NC(=O)c1ccc(OC)cc1	5.3	13
O=C(NN=C1CCCCCCC1)c1ccc(CN2CCOCC2)cc1	.	-8
Cc1cc(NC(=O)CCC2CCCC2)nc2c1c(=O)oc1ccccc12	-1.2	17
COC(=O)c1cn(C(=O)c2cc(Br)ccc2Cl)nc1N	.	-10
COc1cc2c(c(O)c1OC)CC(=O)CCC2	-0.6	-4
Cc1cccc(C)c1NC(=O)Cn1nc(-c2ccc3c(c2)OCCO3)ccc1=O	.	-28
CC(C)(C)C(=O)/C=c1\s/c(=C\c2ccc3c(c2)OCO3)c(=O)n1Cc1cc(=O)n2ccsc2n1	.	-20
Cn1nc(C(=O)N(Cc2cccs2)C2CCCC2)c2c1-c1ccccc1SC2	.	-9
Cc1ccc(-c2nnc(SC(F)F)c3ccccc23)cc1C	-0.5	.
Cc1cc(=O)oc2c(C)c(OC(=O)c3ccco3)ccc12	0.6	15
O=C(CC(c1ccccc1)c1ccccc1)Nc1ccccn1	-1.1	-1
CCC(C)NC(=O)Cc1csc(-c2ccccc2)n1 (stereo not drawn)	.	-25
O=C(NCCc1cn2ccccc2n1)C1CCCCC1	.	5
COc1cc(OC)c(C(=O)COc2ncnc3ccccc23)c(OC)c1	.	12
S=C(NCCCn1ccnc1)NCc1cccs1	.	-2
OC1(C#CCN2CCCCCC2)CCCCC1	-2.5	0
CCc1ccc2oc(-c3ccc(NC(=O)c4ccccc4)cc3)nc2c1	1.2	3
O=C(CCc1nc2cccnc2n1Cc1cccs1)N1CCc2ccccc21	11	-5
O=C(C1CCCCC1)N1CCN(c2ccnc3cc(Cl)ccc23)CC1	-2.4	.
CCN1CCC(N(Cc2ccc(F)cc2)C(=O)Nc2ccccc2Cl)CC1	0.8	-2
COc1nonc1NC(C)=O	0.6	4

Continued:
compound	MgrA-DNA mod	S aureus helic
Clc1ccc2[nH]c3ccc(Cl)cc3c2c1	0.8	.
CSc1ccccc1NC(=O)Cn1nc(C(F)(F)F)cc1C	.	5
CN(C)C(CNC(=O)c1ccco1)c1cccnc1 (stereo not drawn)	.	-21
CC(=O)Nc1ccc(O)c(C(=O)O)c1	-1.8	.
O=C(Nc1ccccc1)Nc1cccc(C(F)(F)F)c1	0.4	7
CCCNC(=O)c1ccc(N2CC3CC(C2)c2cccc(=O)n2C3)c(NS(=O)(=O)c2ccc3c(c2)OCCO3)c1 (stereo not drawn)	.	0
O=C(N/C(=C/c1ccccc1)P(=O)(O)c1ccccc1)c1ccccc1	.	15
COc1cccc(NCc2cccc3c2CN(CC2CCCO2)C3)c1 (stereo not drawn)	-7.4	-1
COc1ccc2c(c1)c1nc3ccccc3nc1n2C	.	12
NC(=S)Cc1ccccc1	.	4
CC1Cc2cc(CCC(=O)O)ccc2O1 (stereo not drawn)	-1.6	10
Cn1c(=O)c2cc(C(=O)c3ccccc3O)cnc2n(C)c1=O	.	6
O=C(Nc1ccc2c(c1)OCO2)c1ccccc1	-4.8	2
COCCN1C(=O)/C(=C\c2c(Cl)cccc2Cl)C(C(=O)OC)=C1C	-6.5	-5
O=C(CN1CCCC1c1cccs1)Nc1cc(C(F)(F)F)ccc1-n1cncn1 (stereo not drawn)	.	25
Cc1noc(C)c1CSc1ncccc1C(=O)NCCc1ccc(S(N)(=O)=O)cc1	.	-1
O=C(Nc1ccccc1)/C(=C/c1ccccc1)NC(=O)c1ccco1	2.0	-5
O=C(CSc1oc(-c2cccs2)nc1S(=O)(=O)c1ccccc1)NC1CCCCC1	.	10
c1csc(C2=NN3C(C2)c2ccccc2OC3c2cccs2)c1 (stereo not drawn)	.	-3
COc1ccc(S(=O)(=O)Nc2nc(C(F)(F)F)cs2)cc1	.	15
COc1n[nH]c2nncnc12	.	8
COC(=O)c1ccc(COC(=O)C(C)N=C2NS(=O)(=O)c3ccccc32)o1 (stereo not drawn)	.	19
CCCc1c(C(=O)OCC)[nH]c2c1C(=O)CC(C)(C)C2	-0.4	2
Cc1nnc2c3ccccc3nc(NCCC3=CCCCC3)n12	.	19
CCCn1nc(C(=O)N2CC(=O)Nc3ccccc32)c2ccccc2c1=O	.	-6

Next structures:
compound	MgrA-DNA mod	S aureus helic
Cc1ccc(Sc2ccc([N+](=O)[O-])cn2)cc1	-0.5	.
CCOC(=O)c1cc(=O)n2[nH]c(-c3ccc(Br)cc3)cc2n1	-1.5	2
CC(C)(C)N1C(=O)c2ccc(C(=O)Nc3ccccc3C(=O)O)cc2C1=O	-1.0	7
CCOC(=O)N1CCC(c2nc(C)sc2C(=O)NCc2ccc(Cl)cc2)CC1	-0.4	4
O=c1cc(CSCc2ccc(Cl)cc2)[nH]c(=O)[nH]1	-0.5	.
O=C(NCc1cccnc1)c1ccc(/C=C2\Sc3ccccc3N(Cc3ccccc3F)C2=O)cc1	-1.0	6
O=C(COc1ncnc2ccccc12)N1CCCCC1	-0.1	-10
O=C1CC(/C=C/c2ccncc2)=Nc2ccccc2N1	-1.4	-2
Cc1ccc2nc(NNC(=O)c3ccc(S(=O)(=O)N4CC(C)OC(C)C4)cc3)sc2c1 (stereo not drawn)	.	16
CCC(Oc1ccccc1)C(=O)N(C)C (stereo not drawn)	-2.4	14
CN(Cc1cc(Br)cc(Br)c1N)C1CCCCC1	1.1	.
CS/C(NCc1ccco1)=C(/C#N)S(=O)(=O)c1ccc(Cl)cc1	1.1	.
CCN1C(=O)c2cccc3c(S(=O)(=O)NCc4ccccc4)ccc1c23	.	15
CC(C)CC(=O)Nc1nnc(SCc2ccccc2)s1	.	9
COc1ccccc1N(CC(=O)Nc1ccc2c(c1)OCO2)S(=O)(=O)c1cccs1	.	14
CC(=O)Nc1ccc(S(=O)(=O)Nc2ccc(F)cc2F)cc1	-1.8	.
O=C(O)CSC(=S)N1CCOCC1	2.2	9
OCC1CCCN1Cc1ccc(Cl)cc1Cl (stereo not drawn)	-1.8	14
CCOC(=O)/C(C#N)=C/C=C1/Sc2ccccc2N1C	.	-288
N#Cc1ccc(/C=N/NC(=O)C2C3CCCCC32)cc1 (stereo not drawn)	.	-21
CCc1ccc(NC(=S)NCC2CCCN2CC)cc1 (stereo not drawn)	.	-6
O=C(CN1CCc2ccccc2C1)Nc1ccccc1	-2.9	2
CCCOc1ccc(C2NC(=O)NC(C)=C2C(=O)OC2CCCCCC2)cc1OC (stereo not drawn)	3.8	.
CCN(CC)C(=O)Cn1cc(S(=O)(=O)CC(=O)N2CCCCC2)c2ccccc21	-1.0	9
N/C(=N\N=C\c1cccs1)SCc1ccccc1	.	-43

Other structures follow:
compound	MgrA-DNA mod	S aureus helic
CC(C)S(=O)(=O)c1ncc(CO)n1Cc1ccccc1	.	-3
COc1ccccc1OCCSc1ncnc2nc[nH]c12	1.6	2
CC(C)NC(=O)N(Cc1ccccc1)Cc1cccnc1	0.4	.
COCCn1c(SCc2coc(-c3cccs3)n2)nc2scc(-c3ccccc3)c2c1=O	.	15
CCOc1ccc(C2SC[C@H](C(=O)O)N2C(C)=O)cc1 (stereo partly drawn)	.	10
O=S(=O)(c1ccc(Cl)cc1)N(O)c1ccc(Cl)cc1	.	5
Cn1c(NCc2ccncc2)nc2ccccc21	.	27
Cc1ccc(Nc2nc3nonc3nc2N(C)C)cc1	1.5	.
CCC(C)(C)C(=O)Nc1ccccc1C(C)C	1.4	3
NC(=O)C1CCN(C2=NC(=O)/C(=C\c3ccc(Br)cc3)S2)CC1	0.6	10
O=C(CSc1ccc2c(c1)OCCO2)NCC(F)(F)F	.	-5
N#CC(C#N)=CC1CCCCC1	.	-61
COc1ccc(CC(O)CN2CCCCC2)cc1 (stereo not drawn)	.	5
CCNc1nc(C(F)(F)F)cc(=O)[nH]1	1.1	.
O=C(CC1SC(=O)N(c2ccccc2)C1=O)Nc1ccccc1 (stereo not drawn)	.	4
NCCSCc1cccs1	.	-4
CCCNC(=O)c1ccc(CSc2nc3ccncc3[nH]2)cc1	0.7	-6
COc1ccc(Br)c(-c2nnc(-c3ccccc3[N+](=O)[O-])o2)c1	-0.3	.
Cc1oc(-n2cccc2)c(C#N)c1C(=O)O	.	2
COc1ccc(C(=O)Nc2nc(C)cs2)cc1S(=O)(=O)N1CCCCC1C (stereo not drawn)	.	14
CN1/C(=C/C(=O)C2CCC2)Sc2ccccc21	1.4	16
CC(NC(=O)C1CCN(C(=O)N(C)C)CC1)c1ccccc1 (stereo not drawn)	0.5	10
O=C1NC(=S)S/C1=C\c1cn(CC(=O)N2CCOCC2)c2ccccc12	4.5	-13
O=C(NCCCN1CCN(Cc2ccccc2)CC1)c1cnn(-c2ccccc2)c1-n1cccc1	.	-17
CC(C)(Oc1ccccc1OC(=O)c1ccccc1)C(=O)CBr	-1.7	-8

Further records.
compound	MgrA-DNA mod	S aureus helic
CCCCC(=O)Nc1nnc(-c2ccc(C)c(C)c2)o1	.	2
COC(=O)C1=C(C)NC(C)=C(C(=O)OC)C1C1CC=CCC1 (stereo not drawn)	2.8	-20
Cc1ccc(C(=O)N2Cc3ccccc3CC2C(=O)O)cc1 (stereo not drawn)	-1.1	13
CC(C(=O)O)(c1ccccc1)c1ccccc1	0.2	7
COc1ccc(SCCc2nnc(-c3ccccc3)o2)cc1	-0.5	.
N#Cc1ccc(-c2ccc(OCc3ncc(-c4ccccc4)o3)cc2)cc1	.	5
O=C(CCn1c(=O)c2ccccc2n(CC(=O)NCc2ccco2)c1=O)NCCc1ccc(Cl)cc1	.	-20
O=C(NC(=O)c1ccccc1)NC1CCCC1	2.2	-1
N#C/C(=C\N1CCc2ccccc21)S(=O)(=O)c1ccc(Cl)cc1	-2.3	.
N#Cc1cc(Cl)ccc1Nc1ncnc(N)n1	-1.1	.
COc1ccc(N2CCN(C(=O)C3CCN(S(=O)(=O)c4ccc5c(c4)oc(=O)n5C)CC3)CC2)cc1	.	-13
N#CCCSc1ccccc1NC(=O)c1sc2ccccc2c1Cl	-2.2	.
O=c1[nH]c(=S)nc2cc[nH]n12	.	24
O=C(O)CCNS(=O)(=O)c1cccc(C(F)(F)F)c1	.	10
CCOc1ccc(NC(=O)CN(C)c2ccc(S(=O)(=O)N(C(C)C)C(C)C)cn2)cc1OCC	.	9
CCOc1ccc(NC(=S)NCCCn2ccnc2)cc1	0.9	5
CCN1CCN(C(=O)C(C)n2c(C)c3cnn(-c4ccccc4)c(=O)c3c2C)CC1 (stereo not drawn)	0.9	2
COc1ccc(CS/C(N)=N/N)cc1	-0.3	.
CC1CN(C(=O)CCC(=O)NC2CCN(Cc3ccccc3)CC2)c2cc(Cl)ccc2O1 (stereo not drawn)	.	8
CCOc1ccc(-n2nc(C(=O)N3CCC4(CC3)OCCO4)c3ccccc3c2=O)cc1	.	6
Cc1cccc(S(=O)(=O)NCc2cn3ccsc3n2)c1	.	-2
CN(C(=O)COC(=O)c1ccc2ccccc2c1)c1ccccc1	-1.5	-9
Cc1cc(C)n(-c2ccccc2)n1	-2.7	11
NC(=O)Cn1cc(F)c(=O)[nH]c1=O	-1.8	15
O=C(Nc1ccc2c(c1)OCCO2)c1ccccc1	-1.4	.

(more compounds)
compound	MgrA-DNA mod	S aureus helic
O=C(O)CNC(=O)c1cccnc1Sc1ccc(Cl)cc1	-2.8	.
O=C(c1ccc(CS(=O)(=O)c2ccccc2)cc1)N1CCCC1	-3.1	5
NC(=O)CSc1nc(N)c(NC(=O)c2cccs2)c(=O)[nH]1	.	8
O=C(CN(Cc1ccco1)C(=O)c1ccccc1)Nc1ccc(Cl)c(Cl)c1	-1.9	9
CCC1C(C#N)=C(SC(C(N)=O)c2ccccc2)NC2=C1C(=O)CC(C)(C)C2 (stereo not drawn)	.	-1
O=C(COC(=O)c1ccc(Cl)nc1)NCc1ccccc1	0.0	-24
CCc1nnc(NC(=O)C2CCN(S(=O)(=O)Cc3ccccc3)CC2)s1	-0.3	5
CCn1c(SCC2COc3ccccc3O2)nnc1-c1cccs1 (stereo not drawn)	.	18
COc1cc(NC(=O)c2ccc3c(c2)C(=O)N(c2cccc(C)c2C)C3=O)c(C(=O)O)cc1OC	.	17
Cc1ccc(N2C(=O)C(c3ccccc3)C(N3CCOCC3)C2=O)cc1 (stereo not drawn)	-4.8	.
O=C(NCCCN1CCN(c2ccccc2)CC1)NCc1ccccc1	.	14
O=C(NCCN1CCN(c2ccccc2)CC1)c1ccc2c(=O)n(CCc3ccccc3)c(=O)[nH]c2c1	.	-19
C=CCNC(=O)Nc1ccc(Cl)cc1	-1.4	9

Some of these compounds in order of their number in MgrA-DNA mod, high to low:
compound	MgrA-DNA mod	S aureus helic
Cc1ccc(C(=O)N2Cc3ccccc3CC2C(=O)O)cc1 (stereo not drawn)	-1.1	13
O=C(C1CCCCC1)N1CCN(c2ccnc3cc(Cl)ccc23)CC1	-2.4	.
Cc1cc(C)n(-c2ccccc2)n1	-2.7	11

Single entries from the entries so far.
MgrA-DNA mod result of `Cc1ccc(N2C(=O)C(c3ccccc3)C(N3CCOCC3)C2=O)cc1` (stereo not drawn) is entered as -4.8
MgrA-DNA mod result of `O=C(O)CNC(=O)c1cccnc1Sc1ccc(Cl)cc1` is entered as -2.8
S aureus helic result of `COc1cc(NC(=O)c2ccc3c(c2)C(=O)N(c2cccc(C)c2C)C3=O)c(C(=O)O)cc1OC` is entered as 17
MgrA-DNA mod result of `C=CCNC(=O)Nc1ccc(Cl)cc1` is entered as -1.4
MgrA-DNA mod result of `O=C(c1ccc(CS(=O)(=O)c2ccccc2)cc1)N1CCCC1` is entered as -3.1
S aureus helic result of `CCC1C(C#N)=C(SC(C(N)=O)c2ccccc2)NC2=C1C(=O)CC(C)(C)C2` (stereo not drawn) is entered as -1
